Screening results deposited in PubChem BioAssay by National Center for Advancing Translational Sciences (NCATS).
gsp antagonist: gsp mutant antagonism. gsp-mutant cells, cAMP HTRF, 30 min; control for the full effect not named in the record. Potency, µM (series often up to 76.9 µM), for inactives: at the top dose activity change, negative = inhibition, actives largely listed as inhibitors. 0.4% of 340,000 active; active = falling curve of any shape with a large fitted effect; inconclusive = falling curve, mostly with a smaller effect; inactive = flat or rising curve; cell line not stated here;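 also: intracellular cAMP measured with PDE inhibitor Ro 20-1724 present during compound exposure; potency is read from the fitted curve at half-maximal effect; % is scaled to controls: 0 for no effect and ±100 for the full control effect; nearly all actives have a fitted effect of over 65% in size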
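Cells, 2000/well, grown 16–24 h in DMEM 10% FBS with 0.5 mg/ml G418, then compounds plus […] (300 uM addition stock), 30 min at 37C. cAMP read by HTRF (cAMP-d2 and anti-cAMP antibody-K in lysis buffer) after 30 min RT.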
gsp agonist: gsp mutant agonism | 0.13% of 340,000 active | gsp mutant cells, cAMP HTRF, 30 min; control for the full effect not named in the record | Potency, µM (highest dose often 76.9 µM), for inactives: top-dose activation (cAMP increase), hits mostly activators | AID 624287; active = well fitted activation curve with a large enough effect; inconclusive = small, poorly fitted or top-dose-only effect, or another doubt; inactive = no such curve, though single readings can be large or run the other way; cell line not stated here;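 also: phosphodiesterase inhibitor Ro 20-1724 added with compounds to block cAMP breakdown; potency is read from the fitted curve at half-maximal effect; nearly all actives have a fitted effect of over 60% in size; about a fifth of the inactives were tested at one dose only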
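Cells in DMEM/10% FBS with G418 were pretreated with compounds in DMSO plus […] (300 uM stock) for 30 min at 37C. cAMP was measured by HTRF (cAMP-d2 plus anti-cAMP antibody-K) after 30 min at room temperature.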
TRPML1 agonist: activates the human TRPML1 channel; TRPML1-expressing cells, Ca2+ dye fluorescence, FDSS; host cell line not named in the record; reference of the full effect not given here; activation, % (no concentration beside the values); 0.12% of 410,000 active; AID 624414; in the data active = activation above about 50%; inconclusive = about 30% to 50%; inactive = below about 30%; also: 0% is about no effect; the text of the record puts the active cut at 80%
Target sequence (Q9GZU1 whole entry, looked up): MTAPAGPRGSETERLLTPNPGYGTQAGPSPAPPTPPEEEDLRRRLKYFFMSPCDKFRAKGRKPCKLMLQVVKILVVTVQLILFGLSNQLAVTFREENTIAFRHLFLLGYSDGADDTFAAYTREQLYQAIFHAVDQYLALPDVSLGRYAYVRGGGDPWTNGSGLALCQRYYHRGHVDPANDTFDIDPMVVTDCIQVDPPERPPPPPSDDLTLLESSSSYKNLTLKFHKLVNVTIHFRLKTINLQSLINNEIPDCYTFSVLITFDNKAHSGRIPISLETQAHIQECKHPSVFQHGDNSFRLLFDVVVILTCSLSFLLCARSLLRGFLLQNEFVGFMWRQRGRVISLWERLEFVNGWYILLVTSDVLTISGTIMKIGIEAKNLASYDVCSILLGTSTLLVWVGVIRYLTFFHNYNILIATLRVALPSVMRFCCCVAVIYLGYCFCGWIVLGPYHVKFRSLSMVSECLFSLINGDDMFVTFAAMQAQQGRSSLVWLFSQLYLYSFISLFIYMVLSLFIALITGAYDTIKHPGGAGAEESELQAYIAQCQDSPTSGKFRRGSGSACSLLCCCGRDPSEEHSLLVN
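In this qHTS format, compounds were pin-transferred onto Ca8-dye-loaded TRPML1-DL cells induced with Tet overnight, and intracellular Ca2+ fluorescence was recorded kinetically for 110 s after a 10 s baseline. A subsequent 4uM final 54-4 (EC80) addition followed by a second 110 s read served as the antagonist phase.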
ClpP mod: qHTS Assay for Activators of ClpP | ATP-dependent Clp protease proteolytic subunit (Bacillus subtilis (strain 168)), P80244 | Potency, µM (top dose mostly 57.5 µM), for the others: at the top dose activity change, negative = active | 1.9% of 340,000 active | purified B. subtilis ClpP, FRET peptide cleavage, 20 min; active = well fitted falling curve with a large enough effect; inconclusive = small, poorly fitted or top-dose-only effect; inactive = no such curve, though single readings can be large or run the other way; also: potency is read from the fitted curve at half-maximal effect; the source files actives as falling curves though it sought activators and does not explain the sign; nearly all actives have a fitted effect of over 65% in size; many hits overshoot -100%
Target sequence (P80244 whole entry, looked up): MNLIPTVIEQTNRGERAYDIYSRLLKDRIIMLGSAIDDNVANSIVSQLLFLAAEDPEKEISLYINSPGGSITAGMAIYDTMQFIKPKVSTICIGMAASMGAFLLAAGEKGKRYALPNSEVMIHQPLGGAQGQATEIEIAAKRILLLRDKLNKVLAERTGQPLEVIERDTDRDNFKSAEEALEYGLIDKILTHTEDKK
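FRET quenching reversal measured ClpP activation: 10 microg/mL B. subtilis ClpP at pH 8 with the FRET-FV decapeptide, read at 430 nm after 320 nm excitation. The 20-min minus 0-min signal was scaled between DMSO/no-enzyme wells and ADEP (5.8 microM final).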
Menin MLL FP FL: inhibitors of human menin-MLL interaction, wild-type MLL peptide. Fluorescence polarization, fluorescein-MLL peptide displacement from menin. FP activity change, % at 61.4 µM. 290,000 tested, under 10 active; inconclusive = falling polarisation curve, or a change in total fluorescence; inactive = total fluorescence flat and polarisation flat or rising; no compound was filed as active; the % refers to the polarisation; negative = inhibition;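 also: % of control where 0% means no effect; inhibitors lower the polarisation; unlabelled MLL peptide was the positive control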
TRPML1 blocker: inhibitors of human TRPML1 channel. TRPML1-inducible cells, Ca2+ dye fluorescence, FDSS; stronger effect = lower value; inhibition of EC80 agonist-evoked calcium signal. 0.02% of 390,000 active. AID 624415. activity change, negative = inhibition, % (no concentration beside the values); in the data active means activity change below about -50%; inconclusive means about -30% to -50%; inactive means above about -30%;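 also: stimulus is agonist 54-4 at its EC80 concentration; % is scaled to controls: 0 for no effect and ±100 for the full control effect; compound concentration not given in the record; the text of the record puts the active cut at -80%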
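Calcium fluorescence in TRPML1-DL cells induced overnight with Tet: a 110 s read after compound pin addition, then a 110 s antagonist read after challenge with 54-4 at 4 uM final (EC80).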
* = called active by the depositor; ? = inconclusive; nt = no result given; [ ] = remark or other dose.

SMILES | gsp antagonist | gsp agonist | TRPML1 agonist | ClpP mod | Menin MLL FP FL | TRPML1 blocker
O=C(COc1ccccc1)NNc1nc2c(F)cccc2s1 | nt | 7%[15.4 µM] | 0.7 | nt | 0.6 | 12
COc1ccc(/C=C2\SC(=O)N(CC(=O)NN3CCN(C)CC3)C2=O)cc1OC | -2% | 18% | -0.5 | nt | 0.4 | 41
CCc1nnc(NC(=O)COc2ccc(N(C)S(=O)(=O)c3ccc(C)cc3)cc2)s1 | -19% | -12% | 0.3 | 0.5% | 0.7 | -1
O=S(=O)(CCOc1ccccc1)c1nc2ccccc2[nH]1 | 2% | -39%[inhibitor] | -0.1 | -2.3% | 5.3 | 4
O=C(COc1ccc2c3c(c(=O)oc2c1)CCCC3)NCCCN1CCCC1=O | 3% | ? | -0.9 | 4.2% | nt | -1
COc1ccc(Cn2ccc3nc(C)c(C(=O)N4CCN(c5ccccc5F)CC4)cc3c2=O)cc1 | nt | nt | 1.9 | ? | nt | 13
C=CCc1c(C)nc(N2CCSCC2)[nH]c1=O | 13% | 6%[15.4 µM] | 0.1 | 1.0% | 6.4 | -8
CC1CCCN(Cc2c(O)ccc3c(=O)c(-c4nc5ccccc5s4)c(N)oc23)C1 (configuration not stated) | ? | -35%[inhibitor] | 3.3 | ? | 6.5 | 1
COCC(=O)Nc1ccc(OCc2ccccc2)cc1 | 4% | -9% | -0.8 | -0.3% | 2.5 | 9
CNC(=O)c1nnc(Cc2ccc(Cl)cc2)o1 | 4% | -36%[inhibitor] | -0.5 | -0.7% | -0.2 | -8
FC(F)Sc1nc2ccccc2[nH]1 | 11% | 9%[15.4 µM] | 0.3 | nt | 2.3 | -9
COc1ccc(CC(=O)N2CCN(C(=O)c3ccco3)CC2)cc1 | -4% | -8% | 1.1 | 0.1% | -0.5 | 1
CCOc1ccccc1C(=O)NCC(=O)NC(C)c1ccc(-n2ccnc2)cc1 (configuration not stated) | -10% | 8%[15.4 µM] | 1.5 | nt | nt | 31
O=S(=O)(NCc1ccc(Cl)cc1)c1ccc(-c2cnc(C3CC3)o2)cc1 | nt | nt | -0.2 | 4.3% | nt | -7
COCCNC(=O)c1cccc(-n2c(C)nc3cccnc32)c1 | nt | nt | 0.7 | 4.0% | nt | 12
O=C(CC12CC3CC(CC(Br)(C3)C1)C2)Nc1nncs1 | 10% | 8% | 1.2 | nt | -5.5 | 20
CCOc1ccccc1C(=O)Nc1nnc(SCC(=O)N2CCCC2)s1 | nt | -53%[inhibitor] | -0.8 | -2.8% | nt | -7
COc1ccc2c3c(cccc13)C(=O)N(O)C2=O | -3% | 0% | 1.2 | -14% | -27 | -16
O=C(COC(=O)/C=C/c1ccc(C(F)(F)F)cc1)NC1CCS(=O)(=O)C1 (configuration not stated) | -4% | -12%[15.4 µM] | 0.2 | nt | nt | 1
O=C(Nc1nnc(-c2ccccc2SCc2ccccc2F)s1)Nc1ccccc1F | 3% | -2% | -0.5 | -9.1% | -0.1 | 7
CSc1cccc(NC(=O)COc2ccccc2)c1 | -12% | 1% | -1.1 | -0.7% | 5.8 | 4
COC(=O)c1ccc(NC(=O)Nc2ccc(F)cc2F)cc1 | -3% | -8% | 0.6 | nt | 7.6 | 8
C=CCOc1ccc(CNn2cn[nH]c2=S)cc1OC | 0% | -12% | 0.2 | -1.6% | -0.5 | 9
O=C(NCCn1cc(SCc2ccccc2F)c2ccccc21)c1c(F)cccc1F | ? | -2% | -0.6 | -0.7% | 0.1 | 0
COc1ccc(CNc2nc3c(-c4ccccc4)nnn3c3ccccc23)cc1 | nt | nt | -1.1 | 3.0% | nt | 7
Cn1c(=O)c2[nH]c(-c3ccccc3Cl)c(O)c2n(C)c1=O | -11% | 8%[15.4 µM] | 5.8 | -2.6% | ? | -16
CC(=O)Nc1cccc(OCc2ccc(F)cc2)c1 | 8% | 38%[15.4 µM] | 1.4 | nt | 2.2 | 1
C[C@@H]1CN([C@@H](C)CO)C(=O)c2cc(NC(=O)Nc3ccccc3)ccc2O[C@H]1CN(C)C(=O)Nc1cccc2ccccc12 | 1% | 1% | -0.7 | -15% | nt | 4
Cc1ccccc1NC(=S)NC12CN3CN(CN(C3)C1)C2 | 12% | -7%[15.4 µM] | -0.2 | nt | 0.8 | 10
CCCCN(C)CCCNC(=O)c1cc(-c2cccs2)nc2ccccc12 | 6% | 2% | 0.8 | nt | -4.0 | 7
CCCCOc1ccc(Cn2c(=O)sc3ccccc32)cc1OC | nt | nt | 4.6 | -2.2% | nt | 19
c1ccc2[nH]c(CN3CCN(c4ncnc5c4oc4ccccc45)CC3)nc2c1 | -11% | 9% | 1.3 | -0.7% | 6.6 | 5
C/C(=N\NC(=O)C(=O)Nc1ccc(C)c(Cl)c1)c1ccncc1 | 12% | -1%[15.4 µM] | -0.8 | -1.9% | -0.5 | 16
Cc1cc(C(=O)NC2CCCc3c2cnn3-c2ccc(C)c(C)c2)n(C)n1 (configuration not stated) | ? | -23% | 0.2 | -0.5% | nt | 20
O=C(Cc1c(O)c2ccccc2oc1=O)c1ccc(F)cc1 | 0% | -4% | -0.7 | 0.7% | nt | 4
O=C1NC(=O)C(c2ccc(F)cc2)N1 (configuration not stated) | 7% | -29% | 0.4 | nt | 0.9 | -2
Cc1cc(=O)n2nc(N3CCC(C(=O)NC(C)c4ccccc4)CC3)sc2n1 (configuration not stated) | 4% | 7% | 0.3 | -1.5% | 9.4 | -8
COCC1CCN(C(=O)c2ccc3oc(CCc4ccccc4)nc3c2)C1 (configuration not stated) | nt | -9% | -0.3 | -1.6% | nt | -6
O=C(CCc1ccc(S(=O)(=O)N2CCOCC2)cc1)N1CCCC1 | 3% | -21% | -0.1 | 0.5% | -0.2 | -4
COc1ccc(N2CCN(C(=O)CSc3nnc4c5cc(C)ccc5n(C)c4n3)CC2)cc1 | -11% | 2% | 0.6 | 0.9% | -1.3 | -6
Cc1ccc(NC(=O)CCc2nnc3n(CC(C)C)c(=O)c4ccccc4n23)cc1C | nt | nt | -0.5 | 0.2% | nt | -14
COCCCNc1oc(-c2ccc(COc3ccc(Cl)cc3)o2)nc1C#N | nt | nt | 0.3 | 32µM* | nt | 18
COc1ccc(N(C(=O)c2snc(C(N)=O)c2N)C(C(=O)NCc2ccc(F)cc2)c2ccc(O)cc2)cc1 (configuration not stated) | -23% | ? | -0.4 | nt | -3.7 | 5
CCCCCCCCCCCC1=C(O)C(=O)C=C(O)C1=O | 7% | nt | 0.5 | ? | ? | nt
O=C(COC(=O)c1ccc(Cl)c(S(=O)(=O)N2CCc3ccccc3C2)c1)Nc1ncc(Cl)cc1Cl | -3% | -11% | -0.1 | ? | 3.0 | -2
COc1ccc(C)cc1NC(=O)Cn1cc(S(=O)(=O)Cc2ccccc2Cl)c2ccccc21 | nt | nt | 1.2 | -0.4% | nt | 5
COc1ccc(-c2nnc(SC(C)C(=O)NC3CC3)o2)cc1 (configuration not stated) | 12% | 3% | 1.8 | -1.5% | nt | -5
COc1ccc(OC)c(-n2c(=S)[nH]c3cc(C(=O)N4CCN(c5ccccc5)CC4)ccc3c2=O)c1 | -7% | 2%[15.4 µM] | -0.3 | 1.0% | -6.4 | -3
COc1ccc(CCNC(=O)CSc2nc3[nH]ncc3c(=O)n2-c2cccc(C(F)(F)F)c2)cc1OC | nt | 18%[15.4 µM] | 0.7 | nt | -3.0 | 9
CCOc1ccccc1C(=O)Nc1ccc2nc3c(c(Nc4ccc(OC)c(OC)c4)c2c1)CCCC3 | nt | nt | -0.8 | -2.1% | nt | 7
O=C(CSc1n[nH]c(-c2cccnc2)n1)Nc1ccc([N+](=O)[O-])cc1Br | -21% | 10%[15.4 µM] | 0.2 | nt | 1.8 | -11
N#Cc1cccc(NC(=O)COC(=O)C2CCC2)c1 | 9% | 17%[15.4 µM] | 0.5 | nt | nt | -18
Cc1ccc(CNc2nc(-c3ccco3)nn2S(=O)(=O)c2ccc3ccccc3c2)cc1 | nt | nt | 0.1 | 1.2% | nt | 59
CN1C(=O)C2(C(C#N)=C(N)Oc3n[nH]c(-c4ccc(Cl)cc4)c32)c2ccccc21 (configuration not stated) | -7% | 4% | 2.2 | -2.4% | 0.4 | -7
CC(C)OCCCn1c(=O)c2ccccc2n2c(-c3ccccc3F)nnc12 | nt | nt | -1.1 | ? | nt | -11
Cc1c(NC(=O)c2cc(C(C)C)on2)c(=O)n(-c2ccccc2)n1C | 8% | -30% | 0.2 | 0.2% | 2.2 | -5
Cc1ccc(-c2cc3onc(-c4ccccc4)c3c(=O)n2C)cc1 | 9% | nt | 0.9 | -1.8% | nt | 78
CCN1CNC(=S)N(c2cc(C)ccc2C)C1 | 9% | -5% | -0.7 | 1.4% | 7.7 | -2
CSc1ccccc1C(=O)Nc1ccc2c(c1)CCC2 | 0% | -31% | 0.5 | nt | 5.9 | -16
COc1ccc(N2CCN(C(=O)c3ccc(Cl)c(S(=O)(=O)N4CCCC4)c3)CC2)cc1 | -10% | -4% | 4.3 | -2.1% | -2.9 | 5
(next part)
SMILES | gsp antagonist | gsp agonist | TRPML1 agonist | ClpP mod | Menin MLL FP FL | TRPML1 blocker
COc1ccc(NC(=O)c2cc(C)nn2-c2ccccc2)cc1 | 9% | -2%[15.4 µM] | -0.5 | 0.0% | -9.4 | -3
COc1ccc(CC(NC(C)=O)C(=O)NC2CCN(c3nnnn3-c3ccccc3)CC2)cc1 (configuration not stated) | 8% | -26% | -0.5 | 1.6% | 3.2 | -5
C=C(C1=CCN(S(=O)C(C)(C)C)[C@H]1CCO)c1ccccc1 (some centres not stated) | 2% | nt | -0.7 | -2.8% | nt | 4
O=C(CSc1n[nH]c(=O)n1C1CC1)N1N=C(c2ccc(Cl)cc2)CC1c1ccco1 (configuration not stated) | 3% | 9% | -0.3 | -0.1% | 5.0 | 28
Cc1ccc(OCCC(=O)OCC(=O)NNC(=O)c2ccccc2)cc1 | 16% | 8%[15.4 µM] | -0.5 | 25µM* | nt | 16
Cc1ccc(-c2nnn(CC(=O)N3CCCCC3)n2)cc1 | -11% | -16%[15.4 µM] | -0.3 | -1.6% | -0.1 | 10
COc1ccc(C(=O)NC(C(=O)NCCc2ccc3c(c2)OCCO3)C(C)C)cc1 (configuration not stated) | -4% | -10% | 2.9 | -3.3% | 0.1 | 26
CC1CCCc2sc3nc(N4CCN(CCO)CC4)n4ncnc4c3c21 (configuration not stated) | 8% | -15% | 0.3 | -17% | 0.1 | 6
Cc1ccc(C)c(CN2CCN(c3ncccn3)CC2)c1 | 2% | -36% | 0.3 | nt | -2.2 | -6
O=C(NC1CSCC1OC(=O)c1ccccc1)c1ccccc1 (configuration not stated) | 3% | 3% | nt | -0.3% | 4.6 | nt
